TRPML1 ag: agonists of human TRPML1 channel; Q9GZU1; TRPML1-expressing cells, Ca2+ dye fluorescence, FDSS; host cell line not named in the record; reference of the full effect not given here; activation, % (no concentration beside the values); 0.12% of 410,000 active; in the data active = activation above about 50%; inconclusive = about 30% to 50%; inactive = below about 30%; further: 0% is about no effect; the text of the record puts the active cut at 80%
Target sequence (Q9GZU1 whole entry, looked up): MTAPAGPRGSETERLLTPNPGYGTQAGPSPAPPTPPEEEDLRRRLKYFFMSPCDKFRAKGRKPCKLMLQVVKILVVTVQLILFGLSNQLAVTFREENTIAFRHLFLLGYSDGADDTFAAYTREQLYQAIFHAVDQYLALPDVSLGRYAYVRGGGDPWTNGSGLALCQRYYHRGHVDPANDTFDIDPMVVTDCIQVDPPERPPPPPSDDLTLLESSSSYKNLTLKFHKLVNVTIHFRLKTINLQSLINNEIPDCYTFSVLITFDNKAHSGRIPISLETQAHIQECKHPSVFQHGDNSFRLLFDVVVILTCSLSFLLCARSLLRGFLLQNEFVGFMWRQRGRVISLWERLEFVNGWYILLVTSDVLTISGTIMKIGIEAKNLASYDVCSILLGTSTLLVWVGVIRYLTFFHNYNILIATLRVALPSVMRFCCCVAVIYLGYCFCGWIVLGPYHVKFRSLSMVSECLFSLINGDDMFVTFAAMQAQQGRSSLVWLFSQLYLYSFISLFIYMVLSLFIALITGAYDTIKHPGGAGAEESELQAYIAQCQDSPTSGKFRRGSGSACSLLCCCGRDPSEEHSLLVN
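Tet-induced TRPML1-DL cells, 1,500 per well, cultured overnight, were loaded with a no-wash Ca2+ dye for 45–90 min. Calcium fluorescence was recorded on the FDSS for 110 s after compound addition, before the EC80 agonist (4 uM 54-4) was added.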
TRPML1 blocker: blocks the human TRPML1 channel. 0.02% of 390,000 active. Q9GZU1. TRPML1-inducible cells, Ca2+ dye fluorescence, FDSS; stronger effect = lower value; inhibition of EC80 agonist-evoked calcium signal. AID 624415. activity change, negative = inhibition, % (concentration not given with the values); in the data active means activity change below about -50%; inconclusive means about -30% to -50%; inactive means above about -30%;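 further: stimulus is agonist 54-4 at its EC80 concentration; on the % scale 0 is the no-effect control and ±100 the full control effect; compound concentration not given in the record; the text of the record puts the active cut at -80%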
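TRPML1-DL cells, Tet-induced overnight (~16 h, 37 °C) at 1,500 cells/well, were loaded with Ca8 no-wash dye plus quencher for 45-90 min at room temperature. Compounds were pinned during FDSS kinetic reading; agonist 54-4 at EC80 (4 uM final) then added.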
D2 PAM: positive allosteric modulators of human D2 dopamine receptor; P14416; DiscoveRx D2 beta-arrestin cells, luminescence, 90 min; 100% = 57 uM dopamine signal; potentiation, % (test concentration not listed); 0.23% of 360,000 active; AID 624464; active = potentiation of 50% or more; inconclusive = 30% to 50%; inactive = 30% or less;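 further: compound concentration not given in the record; tested on top of an EC20 dose of dopamine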
Target sequence (P14416 whole entry, looked up): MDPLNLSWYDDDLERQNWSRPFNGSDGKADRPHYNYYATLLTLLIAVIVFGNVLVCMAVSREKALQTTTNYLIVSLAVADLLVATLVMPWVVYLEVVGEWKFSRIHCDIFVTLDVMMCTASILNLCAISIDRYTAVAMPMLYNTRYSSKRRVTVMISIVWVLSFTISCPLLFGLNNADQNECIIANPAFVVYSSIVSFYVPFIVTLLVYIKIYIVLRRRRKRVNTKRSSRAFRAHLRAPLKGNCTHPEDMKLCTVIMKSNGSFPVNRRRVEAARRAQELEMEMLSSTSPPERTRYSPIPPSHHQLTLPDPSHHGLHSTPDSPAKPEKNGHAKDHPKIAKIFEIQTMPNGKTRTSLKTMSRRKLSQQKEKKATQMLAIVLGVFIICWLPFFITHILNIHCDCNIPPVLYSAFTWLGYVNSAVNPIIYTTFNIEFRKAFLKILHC
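PathHunter beta-arrestin assay in DiscoveRx D2 cells. Compounds were added with an EC20 of dopamine (50 nM final) for 90 min at 37 deg C. Luminescence was read 1 h after detection reagent, with 57 uM dopamine as the EC100 control.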
D2 agonist: activates the human D2 dopamine receptor. P14416. DiscoveRx PathHunter D2 beta-arrestin, luminescence, 90 min; 100% = 57 uM dopamine signal. activation, % (concentration not given with the values). 0.084% of 360,000 active. AID 624465; in the data active = activation above about 40%; inconclusive = about 15% to 40%; inactive = below about 15%; further: compound concentration not given in the record; the text of the record calls up to 30% inactive
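DiscoveRx PathHunter D2 beta-arrestin cells (2,100/well) attached overnight, then compound-stimulated 90 min at 37 C in HBSS/10 mM HEPES/0.1% Tween-20 buffer; beta-galactosidase complementation read by luminescence after 1 h at ambient temperature. Dopamine 57 uM final (EC100) as control.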
Six1-Eya2 blk: blocks human Six1 binding to Eya2. Q15475+O00167. AlphaScreen GST-Six1/His-Eya2 binding, biochemical; stronger effect = lower value; control for the full effect not named in the record. activity change, % (no concentration beside the values). 0.56% of 360,000 active; in the data active = activity change below about -65%; inconclusive = about -30% to -65%; inactive = above about -30%; further: on the % scale 0 is the no-effect control and ±100 the full control effect; compound concentration not given in the record
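GST-Six1 + His-Eya2 (5X stock: 250/500 nM); Tris pH 8.0, 300 mM NaCl, 0.05% BSA, 0.02% Tween 20; GSH donor/Ni acceptor beads; 1 h 37 °C dark; AlphaScreen readout.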
PINK1 modulator: modulators of PINK1 expression; AID 624263; PINK1 immunofluorescence, high-content cytometry, 24 h; Potency, µM (top dose mostly 76.6 µM), for inactives: at the highest dose activation (PINK1 increase), hits mostly activators; 0.2% of 410,000 active; active = well fitted activation curve with a large enough effect; inconclusive = small, poorly fitted or top-dose-only effect; inactive = flat fitted curve, though single readings scatter; cell line not stated here;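 further: potency means the concentration at half of the fitted maximal effect; % of control where 0% means no effect; nearly all actives have a fitted effect of over 65% in size; a mitochondrial uncoupler was the plate control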
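Readout is PINK1 immunofluorescence, quantified alongside mitochondrial, cell and nuclear markers by laser-scanning microplate cytometry. Cells from a stable line were exposed to compound titrations (5 concentrations) for 24 hours, with CCCP controls.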
Active calls of the source: *; [ ] = another dose, or the depositor's remark.

Results for COc1cccc(NC(=O)Cn2c(=O)n(Cc3ccccc3)c(=O)c3ccccc32)c1 ?
TRPML1 ag: 0.4; TRPML1 blocker: -18; PINK1 modulator: 2.8%

What do the screens show for `COc1cccc(C(=O)Nc2cccc(-c3nc4ncccc4o3)c2C)c1`?
TRPML1 ag: -0.4; TRPML1 blocker: -5; D2 PAM: 9; D2 agonist: -0.1; Six1-Eya2 blk: -2; PINK1 modulator: 2.1%

What do the screens show for `O=C(/C=C/c1ccc(Cl)cc1)Nc1ccc(N2CCOCC2)cc1`?
TRPML1 ag: -1.1; TRPML1 blocker: 2; D2 PAM: -23; D2 agonist: -5.3; Six1-Eya2 blk: -9; PINK1 modulator: 4.2%

Results for CCOC(=O)C1(C(=O)OCC)C(C)CC(=O)N1c1ccccc1OC (configuration not stated) ?
TRPML1 ag: -0.8; TRPML1 blocker: 6; D2 PAM: 3; D2 agonist: 0.4; Six1-Eya2 blk: -1; PINK1 modulator: -0.4%

Results for Cn1c(=O)c2sccc2n2c(CCC(=O)N3CCN(c4cccc(Cl)c4)CC3)nnc12 ?
TRPML1 ag: -0.9; TRPML1 blocker: -7; PINK1 modulator: 2.8%

How did COc1cc(C(O)c2nc(-c3cccs3)cs2)ccc1F (configuration not stated) do in these assays?
TRPML1 ag: 0.2; D2 PAM: 7; D2 agonist: 4.6; Six1-Eya2 blk: 0; PINK1 modulator: -0.5%

What do the screens show for `NS(=O)(=O)c1ccc(N/N=C/c2ccccc2C(=O)O)c([N+](=O)[O-])c1`?
TRPML1 ag: -1.2; TRPML1 blocker: -8; D2 PAM: -5; D2 agonist: -3.2; Six1-Eya2 blk: -10; PINK1 modulator: 1.7%

Results for O=C(NCc1cccs1)c1ccc([N+](=O)[O-])cc1 ?
TRPML1 ag: 1.0; TRPML1 blocker: 6; D2 PAM: 2; D2 agonist: -3.2; Six1-Eya2 blk: 20; PINK1 modulator: 2.0%

How did COc1ccccc1/C=C/c1nc(C#N)c(N2CCN(C)CC2)o1 do in these assays?
TRPML1 ag: 0.8; TRPML1 blocker: -4; PINK1 modulator: -0.2%

How did CC(=O)c1nc(-c2ccccc2)sc1C do in these assays?
TRPML1 ag: 0.0; TRPML1 blocker: -27; D2 PAM: -2; D2 agonist: -2.5; Six1-Eya2 blk: 3; PINK1 modulator: 2.6%

How did CCc1cccc(NC(=O)Cn2cc(C=O)c3ccccc32)c1 do in these assays?
TRPML1 ag: -0.9; TRPML1 blocker: 46; D2 PAM: -17; D2 agonist: -1.7; Six1-Eya2 blk: 5; PINK1 modulator: 3.2%

What do the screens show for `Cc1ccc(N2CCN(c3nc4ccc(C(=O)c5ccccc5)cc4n4cnnc34)CC2)c(C)c1`?
TRPML1 ag: 0.2; TRPML1 blocker: 6; PINK1 modulator: 0.2%

Results for CCOC(=O)c1c(CN2CCN(C)CC2)oc2ccc(O)cc12 ?
TRPML1 ag: -0.2; TRPML1 blocker: 6; D2 PAM: -20; D2 agonist: -0.8; Six1-Eya2 blk: 1; PINK1 modulator: 0.3%

Results for COc1ccc(/C(N)=N/OC(=O)c2c(-c3ccccc3Cl)noc2C)cc1OC ?
TRPML1 ag: 0.4; TRPML1 blocker: 6; D2 PAM: 56*; D2 agonist: inconclusive; Six1-Eya2 blk: 1; PINK1 modulator: -1.6%

Results for COc1ccc2c(c1)-c1nc(/N=C/c3c(O)ccc4ccccc34)sc1CC2 ?
TRPML1 ag: 3.1; TRPML1 blocker: 3; D2 PAM: inconclusive; D2 agonist: 8.9; Six1-Eya2 blk: -20; PINK1 modulator: -0.6%

Results for CCOC(=O)c1sc2nc(COC(=O)c3c(F)cccc3F)[nH]c(=O)c2c1C ?
TRPML1 ag: 0.6; TRPML1 blocker: 8; D2 PAM: 4; D2 agonist: -0.8; Six1-Eya2 blk: 2; PINK1 modulator: 0.7%

Results for CC(=O)c1ccc(N2CCN(C(=O)C3CCN(S(=O)(=O)c4c(C)noc4/C=C/c4ccc(C)cc4)CC3)CC2)cc1 ?
TRPML1 ag: 0.7; TRPML1 blocker: -2; PINK1 modulator: 1.4%

How did O=C(NCCNS(=O)(=O)c1ccc(C(F)(F)F)cc1)N1CCOCC1 do in these assays?
TRPML1 ag: -0.8; TRPML1 blocker: 18; D2 PAM: -1; D2 agonist: -4.7; Six1-Eya2 blk: 9; PINK1 modulator: 1.1%

How did O=c1c(O)c(-c2cccs2)oc2ccccc12 do in these assays?
TRPML1 ag: 55*; TRPML1 blocker: -3; D2 PAM: 6; D2 agonist: 2.0; Six1-Eya2 blk: 10; PINK1 modulator: -4.6%[38.3 µM]

Results for CCCCCCOC(=O)C1=C(C)NC(=O)NC1c1ccc2c(c1)OCO2 (configuration not stated) ?
TRPML1 ag: 0.6; TRPML1 blocker: -1; D2 PAM: 1; D2 agonist: 1.7; Six1-Eya2 blk: -2; PINK1 modulator: -0.6%

What do the screens show for `CC(C)N1C(=O)CCC1C(=O)NCCc1ccc(Cl)cc1` (configuration not stated)?
TRPML1 ag: -0.4; TRPML1 blocker: -1; D2 PAM: -6; D2 agonist: -4.7; Six1-Eya2 blk: 3; PINK1 modulator: -0.7%

How did COc1ccc(/C=C/C(=O)O)cc1S(=O)(=O)N1CCCCC1 do in these assays?
TRPML1 ag: 0.5; TRPML1 blocker: 2; D2 PAM: 13; D2 agonist: -7.8; Six1-Eya2 blk: -2; PINK1 modulator: -1.0%

How did CN(Cc1ccccc1)c1ccc(-c2nc(-c3ccncc3)no2)cc1[N+](=O)[O-] do in these assays?
TRPML1 ag: -0.4; TRPML1 blocker: 59; PINK1 modulator: 0.2%

How did CC1=NC(C#N)=C(C#N)NC(C)(C)C1 do in these assays?
TRPML1 ag: -0.2; TRPML1 blocker: -9; D2 PAM: -3; D2 agonist: -0.8; Six1-Eya2 blk: 0; PINK1 modulator: -0.8%

Looked up by structure from above (two):
Results for CC(=O)c1ccc(N2CCN(C(=O)C3CCN(S(=O)(=O)c4c(C)noc4/C=C/c4ccc(C)cc4)CC3)CC2)cc1 ?
TRPML1 ag: 0.7; TRPML1 blocker: -2; PINK1 modulator: 1.4%

Results for O=C(NCc1cccs1)c1ccc([N+](=O)[O-])cc1 ?
TRPML1 ag: 1.0; TRPML1 blocker: 6; D2 PAM: 2; D2 agonist: -3.2; Six1-Eya2 blk: 20; PINK1 modulator: 2.0%

Next structures follow:
Results for CCOC(=O)COc1c(Cl)cc(C2NC(=S)NC(c3ccccc3)=C2C(C)=O)cc1OCC (configuration not stated) ?
TRPML1 ag: -0.2; TRPML1 blocker: -3; D2 PAM: -1; D2 agonist: 1.6; Six1-Eya2 blk: 9; PINK1 modulator: -1.6%

How did O=C(NCc1cccs1)C1CCCN(S(=O)(=O)c2ccc(Br)s2)C1 (configuration not stated) do in these assays?
TRPML1 ag: 0.6; TRPML1 blocker: 47; D2 PAM: -5; D2 agonist: 0.6; Six1-Eya2 blk: 1; PINK1 modulator: 17%

Results for Cc1ccc(S(=O)(=O)NC(=NCC(=O)O)c2ccccc2)cc1 ?
TRPML1 ag: -0.5; TRPML1 blocker: -18; D2 PAM: 4; D2 agonist: -0.2; Six1-Eya2 blk: -3; PINK1 modulator: -0.1%

How did O=S1(=O)N[C@@H](Cc2ccccc2)COc2cc(N3CCC[C@H]3CO)ccc21 do in these assays?
TRPML1 ag: -0.4; Six1-Eya2 blk: 0; PINK1 modulator: 0.9%

Results for Cn1c(=O)c2c(-c3ccccc3Br)n(CCc3ccccc3)cc2n(C)c1=O ?
TRPML1 ag: 2.3; TRPML1 blocker: 40; PINK1 modulator: 0.1%

Results for CCCc1nn(C)c2c(=O)[nH]c(-c3cc(S(=O)(=O)N(CCO)CCO)ccc3OCC)nc12 ?
TRPML1 ag: 0.7; TRPML1 blocker: 10; D2 PAM: -5; D2 agonist: -2.0; Six1-Eya2 blk: 9; PINK1 modulator: -0.2%

What do the screens show for `O=C(NCc1ccncc1)C1CCN(S(=O)(=O)Cc2ccccc2)CC1`?
TRPML1 ag: 0.5; TRPML1 blocker: -23; D2 PAM: -6; D2 agonist: -0.9; Six1-Eya2 blk: 22

Results for Cc1ccc2ncnc(NCCCN3CCOCC3)c2c1 ?
TRPML1 ag: 0.8; TRPML1 blocker: 1; D2 PAM: -11; D2 agonist: 0.0; Six1-Eya2 blk: -1; PINK1 modulator: -0.9%[38.3 µM]

Results for O=C(CSc1ncc(-c2ccccc2)[nH]1)Nc1cccc(O)c1 ?
TRPML1 ag: 0.7; TRPML1 blocker: -8; D2 PAM: -27; D2 agonist: 1.8; Six1-Eya2 blk: -12

How did Cc1cc(NC(=O)C(C)Sc2nc(-c3cccs3)nc3ccccc23)no1 (configuration not stated) do in these assays?
TRPML1 ag: 1.3; TRPML1 blocker: 19; D2 PAM: -9; D2 agonist: 0.5; Six1-Eya2 blk: -10; PINK1 modulator: 12%

How did O=c1ccc(-c2ccc(S(=O)(=O)Nc3ccccc3Cl)o2)n[nH]1 do in these assays?
TRPML1 ag: -0.8; TRPML1 blocker: 1; D2 PAM: -5; D2 agonist: -0.4; Six1-Eya2 blk: -7; PINK1 modulator: 1.8%

How did COc1ccc(-c2cn[nH]c2C)cc1OC do in these assays?
TRPML1 ag: 0.0; TRPML1 blocker: -5; D2 PAM: -6; D2 agonist: 0.1; Six1-Eya2 blk: -10; PINK1 modulator: -0.7%

Results for COc1cc2[nH]c(=O)n(CCCC(=O)N3CCN(c4cccc(C(F)(F)F)c4)CC3)c(=O)c2cc1OC ?
TRPML1 ag: -0.9; TRPML1 blocker: -25; PINK1 modulator: -0.4%

How did Cn1c(CC(=O)Nc2ccccc2F)nnc1SCC(=O)Nc1nncs1 do in these assays?
TRPML1 ag: 0.3; TRPML1 blocker: -18; D2 PAM: -3; D2 agonist: -0.6; Six1-Eya2 blk: -23; PINK1 modulator: -0.1%

What do the screens show for `CSc1nc(C)cc(SCC(=O)Nc2ccc(Cl)cc2Cl)n1`?
TRPML1 ag: 0.2; TRPML1 blocker: 14; D2 PAM: -6; D2 agonist: -4.9; Six1-Eya2 blk: 2; PINK1 modulator: -0.3%

Results for CC(C)COc1ccc(Cc2cnc(N)nc2N)cc1 ?
TRPML1 ag: 1.3; TRPML1 blocker: 0; D2 PAM: 10; D2 agonist: 0.0; Six1-Eya2 blk: -1; PINK1 modulator: -1.6%

How did CCn1ncc(/C=N\NC(=O)Cc2ccc([N+](=O)[O-])cc2)c1C do in these assays?
TRPML1 ag: 0.0; TRPML1 blocker: 27; D2 PAM: -9; D2 agonist: -5.4; Six1-Eya2 blk: 0; PINK1 modulator: 4.1%

What do the screens show for `Cc1ccc(Cn2c(=O)n(Cc3ccc(Cl)cc3)c(=O)c3cccnc32)cc1`?
TRPML1 ag: -1.0; TRPML1 blocker: 7; PINK1 modulator: -0.3%

How did CCn1c(=N)n(CC(O)c2ccco2)c2ccccc21 (configuration not stated) do in these assays?
TRPML1 ag: 0.0; TRPML1 blocker: 11; D2 PAM: 3; D2 agonist: -1.7; Six1-Eya2 blk: 17; PINK1 modulator: 3.6%[38.3 µM]

Bioassay records (PubChem)
